Ba CapD inh = blocks the Bacillus anthracis CapD enzyme; purified CapD enzyme, fluorescence intensity read-out; hits give low values; some hits fall short of the stated cut; z-score (no concentration beside the values); 0.23% of 140,000 active; AID 492967;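 active means z-score under -4 in either of two replicates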;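 further: stock transfer was 100 nL into about 40 µL; score is relative to mean and spread of the plate; one replicate is shown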
AID504770 = E. coli YBA685 growth inhibition, screen for V. cholerae RctB inhibitors | E. coli YBA685 rctB-dependent plasmid, OD600 growth, 3 h; hits give low values | z-score (concentration not given with the values) | 0.27% of 130,000 active;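 active means z-score under -2 on both plates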;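 further: wells of about 30 µL received 100 nL stock; score is relative to mean and SD of the test wells; the first replicate is given; strong numbers were not always called active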
Starred values were filed as active, the others as inactive; · = not tested or not shown; & = joins results of further samples. These rows are one share of the data; count on the stated rates, not on these rows.

SMILES | Ba CapD inh | AID504770
CC1(C)Cc2c(c(N3CCOCC3)nc3sc(-c4ccc(C(=O)O)o4)c(N)c23)CO1 | 1 | -0.7
Cc1nc2c(c(C)c1CCC(=O)NCCC1=CCCCC1)c(=O)n(C)c(=O)n2C | -0.09 | 0.7
NC(=O)C1OC2OC3(CCCCC3)OC2C2OC3(CCCCC3)OC12 (centres undefined) | -0.68 | ·
O=C(OCc1cc(F)cc(F)c1)c1c(F)cccc1F | 0.53 | ·
COC(=O)c1sccc1-n1nnc(C(=O)c2ccc(Cl)cc2Cl)c1C | 0.21 | ·
CCn1c(SCC#N)nnc1-c1cccc(C)c1 | · | -0.4
C=CCN=C1SC(C)C(=O)N1S(=O)(=O)c1ccccc1 (centres undefined) | · | -0.4
CN(C)C1(c2nnnn2CCOC(=O)Nc2ccc(Cl)cc2)CCCCC1 | 15 | 0.15
Cc1ccc(OC(=O)c2cccc(S(=O)(=O)N3CCOCC3)c2)c(-n2nc3ccccc3n2)c1 | · | -0.55
COC(=O)CNC(=O)c1cc(-c2ccc3c(c2)OCO3)nc2c(C)c(Cl)ccc12 | 1.1 | -2
O=C1SC(Nc2ccccc2Br)C(=O)N1c1ccccc1 (centres undefined) | -0.14 | -1
CC(=O)N/C(=C/c1ccccc1)C(=O)N1CCCCC1 | 0.21 | -0.5
CN(C)CC(O)C1CCOC(C)(C)C1 (centres undefined) | · | 2
NC(=NCCCCCCN=C(N)/N=C(\N)Nc1ccc(Cl)cc1)/N=C(\N)Nc1ccc(Cl)cc1 | 0.31&0.2 | -5*
O=C(CSc1ccccc1)N1CCCCCC1 | 0.095 | 1.5
O=C(c1cnn2c(C(F)(F)F)cc(-c3ccco3)nc12)N1CCN(c2cccc(Cl)c2)CC1 | -0.03 | ·
CCN(CC)C(=O)c1cc(-c2ccccc2)n[nH]1 | -0.04 | -0.85
CCCC(=O)NNc1ncc(C(=O)OCC)c(C(F)(F)F)n1 | 0.51 | 0
CCOc1ccc(NC(=O)CSc2nc3ccccc3n2S(C)(=O)=O)cc1 | -0.48 | ·
Cc1ccc(-n2cc(C#N)c(C(=O)c3cccs3)n2)cc1 | 1.2 | 1.5
CCCCCC(=O)NC1CCN(Cc2ccccc2)CC1 | -0.02 | -0.65
COc1cccc(-c2cc(C(=O)NC3CCC(C)CC3)[nH]n2)c1 (centres undefined) | 0.01 | -0.15
c1ccc2c(c1)sc1nnc(Sc3ncnc4sc5c(c34)CCCC5)n12 | · | -1
N#Cc1cccnc1Cl | 5.3 | -1.4
CCOc1ccc(/C=C/C(=O)NCC(C)C)cc1OCC | · | 0.75
COc1c(-c2ccccc2)sc2nc(C)cc(C)[n+]12 | -0.25 | ·
CC(C)(C)NC(=O)Oc1ccccc1 | -0.55 | 0.55
CCC1Oc2ccc(C)cc2N(CC(=O)N(Cc2ccc(F)cc2)CC2CCCO2)C1=O (centres undefined) | · | -0.2
Cc1csc2c(NCCc3ccccn3)ncnc12 | -0.13 | -0.75
CC(=O)N1CC=C(c2ccc(O)cc2)CC1 | · | -0.25
CCCCn1c(CNC(=O)C(C)(C)C)nc2ccccc21 | -0.38 | -0.2
OCCN1CCN(c2ncnc3c2cnn3-c2ccc(Cl)c(Cl)c2)CC1 | · | 0
O=C1C=CC(=C(c2ccc(O)cc2)c2ccc(O)cc2)C=C1 | 0.14 | -0.35
COc1ccc(/C=C2\C(=O)NC(=S)N(c3ccc(Cl)cc3)C2=O)c(OC)c1OC | -0.27 | ·
CN1CCC(N(C)C(=O)NC2CCCCC2)CC1 | 0.43 | -0.25
Oc1ccc(C=Nc2cccnc2)cc1 | 4.4 | 1.4
Nc1nc(-c2ccc(OCc3ccc(Br)cc3)cc2)cs1 | 0.08 | 0.35
CCN(CC)S(=O)(=O)c1ccc2[nH]c(=O)c3ccccc3c2c1 | · | 2.4
O=C(c1cccs1)N(NC(=O)C(O)(c1ccc(Cl)cc1)c1ccc(Cl)cc1)c1ccccc1 | 0.065 | ·
COc1ccccc1N1CCN(S(=O)(=O)c2ccc3nc(-c4ccccc4)[nH]c3c2)CC1 | 0.2 | -0.5
COc1cc(CNCC2CCCO2)cc(Cl)c1OCC(N)=O (centres undefined) | · | 0.25
CCCCn1c(CNC(=O)COc2ccccc2)nnc1SC(C)C(=O)Nc1sc2c(c1C(=O)OCC)CCC2 (centres undefined) | -0.53 | ·
CC(Oc1ccc(F)cc1)C(=O)Oc1ccc(Br)cc1 (centres undefined) | 0.055 | -0.2
Cc1ccc(NC(=O)c2cccc3c2C(=O)c2ccccc2-3)cc1 | -0.52 | -0.05
N=Cc1c(C(F)(F)F)[nH]n(-c2nc3ccccc3s2)c1=O | -0.41 | 1.4
N#CC1=C(N)S[C@H](C(=O)c2ccccc2)[C@H]1c1ccc(Br)c(F)c1 | 0.17 | 0.4
CC1(C)CC(NC(=O)c2ccncc2)CC(C)(C)N1O | 0.78 | -0.05
CC12CCC(C(=O)N3CCCC3)(OC1=O)C2(C)C (centres undefined) | 0.2 | ·
NC(=O)CCN1C(=O)C2C3C=CC(C3)C2C1=O (centres undefined) | -0.36 | 0.95
COc1cc(OC)nc(CSc2ncc(C(=O)O)n2C)n1 | -0.005 | ·
O=C(COC(=O)c1ccccn1)Nc1ccccc1 | · | 1.1
CNC(=O)NC(=O)CN1C(=O)c2ccccc2C1=O | · | 0.55
COC(=O)c1ccccc1NC(=O)C1CCCN(c2nnc(-n3cccc3)s2)C1 (centres undefined) | 2.1 | -0.35
Cc1nn(C(=O)c2cccnc2)c(C)c1Sc1ccccc1 | -0.72 | -0.9
O=C(c1cccs1)c1coc2ccc(O)c(CN(CCO)CCO)c12 | -0.92 | 0.05
O=C(CNCc1ccc(F)cc1)N1CCC2(CC1)OCCO2 | · | -0.05
Cc1ccc(NC(=O)c2cnn(-c3ccccc3)c2NC(=O)c2ccco2)cc1 | 0.035 | 0.75
CN(CCC#N)c1ccc(/C=C2/N=C(c3ccccc3)OC2=O)cc1 | -1.1 | 0.65
CCN1CCCC1CNC(=O)c1sc2ncnc(N3CCN(c4ccccc4)CC3)c2c1C (centres undefined) | 0.6 | ·
CC(O)CCc1nc2ccccc2[nH]1 (centres undefined) | -0.14 | -0.65

Complete entries, quoted from the list. Screens in order: Ba CapD inh, AID504770
c1ccc2c(c1)sc1nnc(Sc3ncnc4sc5c(c34)CCCC5)n12 across the screens: ·, -1
N#CC1=C(N)S[C@H](C(=O)c2ccccc2)[C@H]1c1ccc(Br)c(F)c1 across the screens: 0.17, 0.4
NC(=O)C1OC2OC3(CCCCC3)OC2C2OC3(CCCCC3)OC12 (centres undefined) across the screens: -0.68, ·
CN(C)CC(O)C1CCOC(C)(C)C1 (centres undefined) across the screens: ·, 2

(listing goes on)
SMILES | Ba CapD inh | AID504770
CC(C)(CO)NCC(O)Cn1c2ccccc2c2ccccc21 (centres undefined) | 13 | 0.05
Cc1cc(C(=O)OCc2cc(=O)oc3cc(C)c(Cl)cc23)c(C)o1 | · | 0.9
CN(C)c1nc(-c2ccc(Cl)cc2)[nH]c(=O)n1 | 1.2 | 0.9
Nc1nc(Br)c2c(Cl)cccc2c1-c1ccc(F)cc1 | -0.24 | ·
CCc1ccc(NC(=O)NCCCN2CCCc3ccccc32)cc1 | -0.52 | 0.05
Cc1cc2[nH][nH]c(=O)c2c(C)n1 | -0.95 | -0.4
CCOc1ncccc1C(=O)N1CCCSC1=Nc1ccccc1OC | · | 0
Cc1cc(SCc2ccc(C(F)(F)F)cc2)nc(=O)[nH]1 | · | 1.6
N#CC(C(=Nc1ccccc1)SCc1ccc(Cl)cc1)c1nc2ccccc2[nH]1 (centres undefined) | -0.67 | 1.5
N=C(N)SCP(=O)(c1ccccc1)c1ccccc1 | 0.17 | 0.65
COc1cc(/C=C2\Sc3ccccc3C2=O)cc(Cl)c1OC(C)C | -0.14 | ·
CC(C)NC(=O)/C(=C/c1cn(-c2ccccc2)nc1-c1cccc([N+](=O)[O-])c1)NC(=O)c1ccccc1 | -0.46 | ·
O=C(OCC(=O)N1CCc2ccccc2C1)c1ccc(Br)o1 | -0.14 | -0.1
CC1(C)CC(=O)c2cnc(NC(=O)CSCC(=O)Nc3cccc(F)c3)nc2C1 | · | -0.8
N#C/C(=C\Nc1ccc2c(c1)OCCO2)S(=O)(=O)c1cccs1 | -1 | 0.55
CC(C)CC(NS(=O)(=O)c1ccc2[nH]c(=O)c(=O)[nH]c2c1)C(=O)O (centres undefined) | -0.45 | -1.1
CCOC(=O)Cn1c2c(sc1=N)CC(C(C)(C)C)CC2 (centres undefined) | 0.095 | -0.45
CCc1ccc(C(=O)N(CC)Cc2ccncc2)s1 | 1.7 | -0.9
Cc1c(C(=O)Nc2ccc(Oc3ccccc3)cc2)sc2ncn(CC(=O)N3CCN(c4ccccn4)CC3)c(=O)c12 | -0.63 | ·
O=C(/C=C/c1ccc(S(=O)(=O)N2CCOCC2)cc1)N1CCCCC1 | · | -0.2
COc1ccc(S(=O)(=O)CCC(=O)N(C)c2ccc(OC)cc2OC)cc1 | -0.14 | -0.25
CS(=O)(=O)N1Cc2ccccc2CC1C(=O)OCc1nc2ccccc2c(=O)n1CC#N (centres undefined) | · | -0.65
CCN(CC)c1nc2ccccc2[nH]1 | 0.12 | -0.3
COc1cc(Cl)c(C)cc1NC(=S)N(CCN(C)C)C(C)c1ccco1 (centres undefined) | 0.79 | -0.95
O=C(OCC(=O)c1cccs1)c1ccco1 | · | -0.65
CCOC(=O)c1c(C)n(-c2ccccc2)c2ccc(OC(=O)c3ccc(Cl)c([N+](=O)[O-])c3)cc12 | -0.56 | ·
O=C(O)Cc1cccnc1 | -0.92 | 1.8
Cc1nnc2c(=O)n(-c3cccc(F)c3)ccn12 | 0.54 | -0.75
COc1ccc(NC(=O)C(C)N2C(=O)c3ccccc3S2(=O)=O)c(OC)c1 (centres undefined) | · | 0.25
O=C(c1cc2ccccc2oc1=O)N1N=C(c2ccccc2)CC1c1ccccc1 (centres undefined) | 0.075 | 3.2
CCOC(=O)C1=C(O)/C(=C/c2cccs2)SC1=Nc1ccccc1 | 1.9 | 1.3
CCOC(=O)c1cnc2ccc(C(=O)OC)cc2c1NCCN(C)C | 14 | -1.1
CCCCNC(=O)NC1C(NC(=O)NCCCC)N(C)C(=O)N1C (centres undefined) | -0.69 | ·
CC[C@@H](C)C(=O)O[C@H]1[C@H](O)[C@H]2[C@@H](CN3C[C@@H](C)CC[C@H]3[C@@]2(C)O)C2C[C@]34O[C@@]5(O)[C@@H](OC(=O)C(C)(O)CC)CC[C@@]3(C)[C@@H]5[C@@H](OC(C)=O)[C@@H](OC(C)=O)[C@H]4[C@@]21O (some centres undefined) | 117 | ·
Cc1cc(C)c2c(c1)c(-c1ccccc1)c(-c1ccccc1)n2CC(O)Cn1nnc2ccccc21 (centres undefined) | 1.4 | ·
Cc1ccc(N(Cc2ccco2)S(=O)(=O)c2ccc(F)cc2)cc1 | · | 0.55
COC(=C(C#N)C#N)c1ccccc1 | 0.2 | 0.05
CCOC(=O)COc1ccc(S(=O)(=O)Nc2cccc(SC)c2)cc1 | 0.31 | 0.75
O=C(NCc1ccccc1)c1ccc2c(c1)N(Cc1ccccc1)CCS2 | -0.025 | 1.3
O=S(=O)(c1ccccc1)n1ccc(-c2ccc(Br)s2)n1 | 0.04 | 0.5
O=C(CCc1nc(-c2ccccc2F)no1)NC1CCCCC1 | 0.2 | 0
Cn1cccc1C1=NCCO1 | 0.13 | -0.35
O=C(c1ccccc1)N(Cc1ccco1)Cc1ccco1 | 0.53 | -1.1
N#C/C(=C/c1ccc(-c2ccc(C(=O)O)cc2)o1)c1ccc(Cl)cc1 | 13 | -0.7
O=C(O)CC(NC(=O)c1cncc(O)c1)C(=O)O (centres undefined) | 3.4 | -0.7
COc1ccc(-c2cc(C(=O)O)c3ccccc3n2)cc1OC | 3 | -0.55
Cc1ccc(NC(=O)C(C)OC(=O)CSc2ccccc2)cc1 (centres undefined) | · | -1.1
CC[C@H](C)NC(=O)Cc1ccc(NC2=NC3CS(=O)(=O)CC3S2)cc1 (some centres undefined) | 0.02 | 1
COc1ccccc1NC(=O)N1CCNCC1 | · | -0.65
COCCCn1c(=S)[nH]c2ccccc2c1=O | 0.27 | ·
Cc1c(Br)sc2sc(-c3ccn[nH]3)c(C)c12 | -0.48 | -0.7
CCOC(=O)C1CCN(Cc2cccc(NC(=O)c3ccco3)c2)CC1 | 0.17 | -0.35
CN(C)CCCN(C)C(=O)C(CCC(N)=O)NC(=O)OCC1c2ccccc2-c2ccccc21 (centres undefined) | -0.49 | ·
CCCc1nc(N)c(C#N)c(-c2cccs2)c1CC | 2.3 | 0.6
N#Cc1cccc(NC(=O)CCC(=O)N2CCN(S(=O)(=O)c3ccccc3)CC2)c1 | · | 0
Cc1csc(NC(=O)C2CCCN(S(=O)(=O)c3cccc4nsnc34)C2)n1 (centres undefined) | -0.49 | 2.3

Of the compounds above, these have a cyano group.
SMILES | Ba CapD inh | AID504770
CCn1c(SCC#N)nnc1-c1cccc(C)c1 | · | -0.4
Cc1ccc(-n2cc(C#N)c(C(=O)c3cccs3)n2)cc1 | 1.2 | 1.5
N#Cc1cccnc1Cl | 5.3 | -1.4
N#CC1=C(N)S[C@H](C(=O)c2ccccc2)[C@H]1c1ccc(Br)c(F)c1 | 0.17 | 0.4
CN(CCC#N)c1ccc(/C=C2/N=C(c3ccccc3)OC2=O)cc1 | -1.1 | 0.65
N#CC(C(=Nc1ccccc1)SCc1ccc(Cl)cc1)c1nc2ccccc2[nH]1 (centres undefined) | -0.67 | 1.5
N#C/C(=C\Nc1ccc2c(c1)OCCO2)S(=O)(=O)c1cccs1 | -1 | 0.55
CS(=O)(=O)N1Cc2ccccc2CC1C(=O)OCc1nc2ccccc2c(=O)n1CC#N (centres undefined) | · | -0.65
COC(=C(C#N)C#N)c1ccccc1 | 0.2 | 0.05
N#C/C(=C/c1ccc(-c2ccc(C(=O)O)cc2)o1)c1ccc(Cl)cc1 | 13 | -0.7
CCCc1nc(N)c(C#N)c(-c2cccs2)c1CC | 2.3 | 0.6
N#Cc1cccc(NC(=O)CCC(=O)N2CCN(S(=O)(=O)c3ccccc3)CC2)c1 | · | 0

Compound activity as filed in PubChem BioAssay.
